RE007 growth inh: less growth of the S. pombe RE007 Vpr strain | AID 651644 | actives 0.21% (n = 360,000) | S. pombe RE007 Vpr strain, BacTiter-Glo ATP luminescence, 24 h; control for the full effect not named in the record | Potency, µM (titrated, usually from 92.2 µM), inactives show top-dose activity change, negative = less growth; active = well fitted falling curve with a large enough effect; inconclusive = small, poorly fitted or top-dose-only effect; inactive = no such curve, though single readings can be large or run the other way;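 further: on the % scale 0 is the no-effect control and ±100 the full control effect; nearly all actives have a fitted effect of over 50% in size; the assay follows cell death caused by Vpr and the record does not say whether a fall means rescue or toxicity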
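Fission yeast strain RE007, carrying one chromosomally integrated HIV-1 vpr copy, was seeded at OD 0.01 in PMG+AL medium with 23 nL pinned compound. After 24 h at 30 °C and 99% humidity, viability was read by BacTiter-Glo luminescence.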
Marburg entry inh: Marburg virus entry inhibition; AID 540276; actives 1.8% (n = 300,000); Potency, µM (series often up to 37.8 µM), for the others: at the highest dose activity change, negative = inhibition, actives largely listed as inhibitors; Marburg virus pseudotyped entry inhibition, cell reporter; control for the full effect not named in the record; about a third of the inactives were read at about 46 µM; active = well fitted inhibition curve with a large enough effect; inconclusive = small, poorly fitted or top-dose-only effect, or effect the other way; inactive = flat fitted curve, though single readings scatter; tested in HEK293 cells; about a fifth of its hits are not listed in these tables; further: on the % scale 0 is the no-effect control and ±100 the full control effect; luciferase read-out
2A StopGo: FMDV 2A StopGo reporter, luciferase signal; human cells with a luciferase reporter of 2A StopGo recoding; control for the full effect not named in the record; Potency, µM (series often up to 57.9 µM), without a hit: at the top dose signal change, negative = less light; actives 1.2% (n = 410,000); AID 1159524; active = well fitted falling curve with a large enough effect; inconclusive = small, poorly fitted or top-dose-only effect; inactive = no such curve, though single readings can be large or run the other way; tested in HEK293T cells; further: on the % scale 0 is the no-effect control and ±100 the full control effect; nearly all actives have a fitted effect of over 45% in size; luciferase light after 4 h
LASV entry inh: inhibitors of Lassa virus binding or cell entry | Lassa virus pseudotype entry inhibition, cell reporter; control for the full effect not named in the record | AID 540256 | Potency, µM (highest dose often 37.9 µM), for the others: at the top dose activity change, negative = inhibition, most hits filed as inhibitors | actives 1.2% (n = 300,000); active means well fitted inhibition curve with a large enough effect; inconclusive means small, poorly fitted or top-dose-only effect, or effect the other way; inactive means flat fitted curve, though single readings scatter; tested in HEK293 cells; further: on the % scale 0 is the no-effect control and ±100 the full control effect; nearly all actives have a fitted effect of over 50% in size; luciferase read-out
SARS PLpro yeast: blocks SARS-CoV papain-like protease in a yeast assay. AID 485353. S. cerevisiae expressing SARS-CoV PLpro, growth rescue; control for the full effect not named in the record. actives 0.19% (n = 330,000). Potency, µM (series often up to 32.9 µM), for inactives: at the top dose activity, positive = growth rescue; active means well fitted rising curve with a large enough effect; inconclusive means small, poorly fitted or top-dose-only effect; inactive means no such curve, though single readings can be large or run the other way; further: 0% is about no effect; nearly all actives have a fitted effect of over 55% in size; growth read by luminescence after 48 h
Cruzain Triton: inhibitors of Trypanosoma cruzi cruzain with detergent | actives 0.43% (n = 200,000) | Potency, µM, for the others: max response, negative = inhibition, hits mostly inhibitors | purified cruzain, Z-FR-AMC fluorescence, 0.01% Triton | P25779;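 further: plate controls were neutral wells for no effect and buffer without enzyme for full effect; nearly all actives have a fitted effect of over 40% in size; top concentration of the series not given in the record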
Target sequence (P25779 123-467 limits assumed): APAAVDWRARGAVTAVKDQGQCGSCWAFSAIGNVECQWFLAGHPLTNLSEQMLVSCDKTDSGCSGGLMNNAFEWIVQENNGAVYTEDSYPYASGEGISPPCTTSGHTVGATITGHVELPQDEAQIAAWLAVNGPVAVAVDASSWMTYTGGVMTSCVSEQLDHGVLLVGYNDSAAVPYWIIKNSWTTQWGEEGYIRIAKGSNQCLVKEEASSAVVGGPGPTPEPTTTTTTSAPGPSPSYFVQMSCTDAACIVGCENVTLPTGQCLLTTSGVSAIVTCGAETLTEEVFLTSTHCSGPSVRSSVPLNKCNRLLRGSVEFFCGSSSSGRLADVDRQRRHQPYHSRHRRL
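Cruzain (1.5 nM) preincubated 15 min at RT with compound in 100 mM sodium acetate pH 5.5, 5 mM DTT, 0.01% Triton X-100. Reaction started with 2 uM Z-FR-AMC; AMC fluorescence (ex 360/em 450 nm) change over 60 s gave rate.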
Cruzain noTriton: cruzain (T. cruzi) inhibition without detergent | P25779 | purified cruzain, Z-FR-AMC fluorescence, no detergent | Potency, µM, for the others: max response, negative = inhibition, actives largely listed as inhibitors | actives 2.3% (n = 200,000);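 further: plate controls were enzyme without inhibitor for no effect and buffer without enzyme for full effect; nearly all actives have a fitted effect of over 40% in size; top concentration of the series not given in the record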
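Detergent-free condition (0.00005% Triton X-100) in acetate buffer pH 5.5 with DTT. 1.5 nM enzyme and compound were pre-mixed 15 min, then 2 uM Z-FR-AMC substrate added; reaction progress from fluorescence change between first and third reads (60 s).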
NS1 function inh: blocks influenza NS1 protein function; actives 0.4% (n = 270,000); Potency, µM (highest dose often 46.1 µM), without a hit: top-dose activity, positive = more growth; S. cerevisiae slowed by influenza A NS1, growth recovery by OD600; active means well fitted rising curve with a large enough effect; inconclusive means small, poorly fitted or top-dose-only effect; inactive means no such curve, though single readings can be large or run the other way; further: nearly all actives have a fitted effect of over 50% in size
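In this qHTS, NS1 from influenza A is expressed in budding yeast, where it slows growth. Cells are switched from glucose to 2% galactose medium (pH 6.0, -URA), treated with compound, and growth recovery is read at OD600.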
* marks the source's active call; other numbers are inactive results; ? = inconclusive; . = no result given; & = joins results of further samples; [ ] = remark or other dose. Unless noted, the call rests on the fitted dose curve; in most records, active means well fitted curve in the direction sought with a large enough effect; inconclusive means small, poorly fitted or top-dose-only effect, or another doubt; inactive means no such curve, though single readings can be large; an effect the other way counts as inactive or inconclusive. Potency means the concentration at half of the fitted maximal effect. An unsorted share of the library; 4.7% or so of the library scored in one or more.

canonical_smiles	LASV entry inh	NS1 function inh	RE007 growth inh	Cruzain noTriton	SARS PLpro yeast	Marburg entry inh	Cruzain Triton	2A StopGo
CCOC(=O)c1sc(NC(=O)C2c3ccccc3Oc3ccccc32)c(C(=O)OCC)c1C	-3%[46.1 µM]	.	.	?	.	-17%[46.1 µM]	6.6%	0%
CC(C)OC(=O)C1C2C=CC3(CN(Cc4cccs4)C(=O)C13)O2 (stereo unspecified)	23%	6%	-14%	-8%	-6%	-4%&11%	3.6%	-4%
COc1ccc(Cl)cc1NC(=O)Cn1c(=O)n(Cc2cccs2)c(=O)c2cccnc21	.	.	.	?	.	?	-3.9%	6%
COc1cccc(C(=O)C(C#N)=C(SC)SC)c1	.	-43%	-8%	.	1%	.	.	28µM*
Cc1ccc(N)c(C(=O)c2ccc(Br)cc2)c1	7%[46.1 µM]	.	-9%	.	-1%	?	.	-11%
CCc1cc(C=C(Cl)Cl)oc(=O)c1C	-16%	-14%	-2%	-9%	-2%	1%	1.3%	-2%
O=C(c1ccc(Cl)cc1Cl)N1CCSCC1	27%	4%	-7%	.	1%	20%	.	-24%
Cc1nn(-c2ccccc2)c(Cl)c1C(=O)Nc1c(C)n(C)n(-c2ccccc2)c1=O	28%	-8%	-6%	-10%	-6%	-8%&3%	10%	12%
Cc1ccc2nc(C)cc(N/N=C/c3ccc(F)cc3)c2c1	10%	-1%	22%	.	-1%	9%[46.1 µM]	.	-12%
Cc1cc(C)cc(NC(=O)[C@H]2O[C@@H]3OC(C)(C)O[C@@H]3[C@H]3OC(C)(C)O[C@H]32)c1	4%[46.1 µM]	.	.	15%	.	0%[46.1 µM]	-2.1%	8%
CC(C)(CSc1ncccn1)NS(=O)(=O)c1ccccc1	13%[46.1 µM]	0%	-7%	.	0%	15%[46.1 µM]	.	12%
Cc1cc([N+](=O)[O-])ccc1NC(=O)c1ccco1	-6%	8%	-8%	.	2%	19%[46.1 µM]	.	-8%
CCCCN(C(=O)C1CC(=O)N(Cc2ccc(C)cc2)C1)c1c(N)n(CCCC)c(=O)[nH]c1=O (stereo unspecified)	2%	.	6%	.	1%	1%	.	-9%
COc1ccc(-c2nc(CN3CCC(C(=O)NC4CCN(Cc5ccccc5)CC4)CC3)c(C)o2)cc1OC	.	-8%	-9%	.	4%	.	.	-28%
O=C(Nc1ccc(S(=O)(=O)NC2=NCCCCC2)cc1)c1cc(S(=O)(=O)N2CCOCC2)ccc1F	8%	-9%	18%	.	21%	-30%	.	-5%
COc1ccc(C(=O)Nc2cccnc2Cl)cc1OC	.	12%	5%	.	-5%	.	.	1%
CC(=O)N1C(C)(C)CC(=NOC(=O)c2ccc(C)cc2)CC1(C)C	.	-1%	2%	.	1%	14%[46.1 µM]	.	3%
Oc1ccccc1-n1nc2ccc3nonc3c2n1	.	-3%	-5%	.	0%	.	.	11%
N=C(N)c1ccccc1	-9%	-4%&5%	-2%&-9%[18.4 µM]	-11%	-2%	-7%&-7%&13%&-7%&-7%&-7%&-7%	4.3%	-10%&-17%
O=C(Nc1ccc(Cl)cc1)c1cccnc1N1CCCCC1	-3%	-14%	-4%	4%	-6%	?	-2.5%	-28%
Cc1ccc(N2C(=O)c3sc4nnc(C)c(=O)n4c3C2=O)cc1	1%	9%	13%	-5%	-8%	6%&6%	-2.7%	1%
O=C(NCCCN1CCOCC1)c1nn(-c2ccccc2)c(=O)c2ccccc12	?	.	-8%	.	-2%	-1%	.	-16%
COc1ccc(S(=O)(=O)n2nc(OCc3cccs3)cc2N)cc1	.	-1%	6%	.	11%	.	.	?
COc1ccc(NC(=O)CC(C)C)c([N+](=O)[O-])c1	?	11%	1%	0%	6%	0%	1.0%	13%
Cc1nnc(N(C)C(=O)c2cccnc2)s1	8%	-6%	13%	-11%	1%	-3%	8.0%	16%
C=C(C)[C@@H]1CC[C@]2(C(=O)O)CC[C@]3(C)C(CCC4[C@@]5(C)CC[C@H](O)C(C)(C)C5CC[C@]43C)C12 (stereo partly specified)	.	7%	-2%	.	-11%	5%	.	?
Cc1ccc(C)c(NC(=O)CN(C)C(=O)Cn2c(=O)oc3ccccc32)c1	1%	.	2%	.	.	23%	.	-1%
O=C(CCN1C(=O)/C(=C/c2ccc(F)cc2)SC1=S)NC1CCS(=O)(=O)C1 (stereo unspecified)	8%[46.1 µM]	-1%	-6%	.	-4%	-8%[46.1 µM]	.	-5%
NS(=O)(=O)c1ccc(CCNC(=O)CN2C(=O)c3ccccc3S2(=O)=O)cc1	-8%	.	-15%	.	-1%	-1%	.	-6%
Cc1cc(OC(F)F)ccc1NC(=S)NC1CCCC1	.	-5%	5%	.	10%	.	.	23%
CCOCCCNC(=O)c1c[nH]c2cc(OC)ccc2c1=O	29%	2%	-6%	.	0%	-7%[46.1 µM]	.	24%
CC(C)C(NC(=O)c1ccc(Cl)cc1Cl)C(=O)N1CCC1 (stereo unspecified)	11%	.	2%	.	2%	20%	.	-14%
Cc1cc(NS(=O)(=O)c2ccc(NC(=O)COc3ccc(C#N)cc3)cc2)nc(C)n1	9%	.	-12%	.	5%	21%	.	52%[activator]
Cc1ccccc1Cn1c2ccccc2c2cnn(CC(=O)NCc3cccc(Cl)c3)c(=O)c21	-24%[46.1 µM]	.	.	-2%	.	-21%[46.1 µM]	-0.7%	-10%
Cc1[nH]n(-c2ccccc2)c(=O)c1CCO	-6%[46.1 µM]	2%	10%	.	0%	11%[46.1 µM]	.	22%
CCOC(=O)C1CCCN(c2nc3ccccc3nc2C(C#N)C(=O)OC(C)COC)C1 (stereo unspecified)	?	-12%	7%	?	14%	-2%	-9.5%	-10%
N#CC(C#N)=Cc1ccc(-c2ccccc2)o1	-10%	2%	.	-2%	-23%	3%	-4.0%	.
COc1ccc(C)cc1S(=O)(=O)Nc1ccncc1	-9%	0%	-1%	.	-2%	-2%	.	54%[activator]
Cc1cccc(C(=O)OCc2cnc(Cl)s2)c1	13%	-3%	-10%	6%	6%	-2%	-7.6%	22%
CC(C)Nc1nc(NC(C)C)nc(Nn2cnnc2)n1	15%[46.1 µM]	1%	2%	.	-1%	-5%[46.1 µM]	.	2%
O=C(CSc1nc2ncc(Cl)cc2[nH]1)c1ccc2c(c1)OCO2	?	-12%	14%	.	-3%	12%[46.1 µM]	.	50%[activator]
COc1ccccc1N1CCN(S(=O)(=O)c2ccc(F)c(C(=O)Nc3ccc(C)c(F)c3)c2)CC1	?	.	.	?	.	.	1.4%	?
CCCCCC1=C(C(=O)OC)C(C(=O)OCC)N(S(=O)(=O)C(F)(F)F)c2ccccc21 (stereo unspecified)	.	.	0%	-1%	-28%	.	1.4%	?
CCOc1ccc(/C=C\C(C)=N\O)cc1	-6%	-3%	?	-10%	-14%	?	-21%	.
Cc1cc(OC(C)C(=O)NCc2ccncc2)c2c3c(c(=O)oc2c1)CCCC3 (stereo unspecified)	.	0%	-11%	.	7%	.	.	0%
CCOc1cc(C(=O)NC(=S)Nn2cnnc2)cc(OCC)c1OCC	29%	.	7%	.	-1%	22%[46.1 µM]	.	6%
COc1cc(C(=O)OC(C)CN2C(C)CCCC2C)cc(OC)c1OC (stereo unspecified)	3%	-13%	-11%	.	11%	-19%	.	-8%
Cc1ccc(NC(=O)CN(C)C(=O)COc2cccc3cccnc23)cc1	-3%	-12%	8%	-15%	2%	?	-3.5%	-28%
COc1ccc(-c2cc(C(F)(F)F)n3nc(C(=O)Nc4sc5c(c4C(=O)OC(C)C)CCC(C)C5)cc3n2)cc1 (stereo unspecified)	10%[46.1 µM]	.	.	3%	.	.	-1.5%	-18%
CC(=O)c1ccc(OCC(=O)N2CCCC(Nc3ccc(C)c(C)c3)C2)cc1 (stereo unspecified)	1%	13%	-18%	.	4%	?	.	-8%
Nc1nccnc1C(=O)OCc1nc2sc3c(c2c(=O)[nH]1)CCCC3	-2%	.	10%	.	3%	17%	.	-13%
O=C(NNC(=O)c1ccc(Br)o1)c1csc(N2CCOCC2)n1	-2%	.	10%	.	1%	0%[46.1 µM]	.	3%
COC1=C(Br)C(=O)c2ncccc2C1=O	?	.	?	.	.	?	.	35µM*
COc1ccc(S(=O)(=O)Nc2c(C)ccc3nsnc23)cc1OC	2%	4%	-1%	-4%	3%	?	1.5%	36%[activator]
C/C(=N\Nc1ccc(Cl)c(C(=O)O)c1)c1ccc(N2CCOCC2)cc1	-18%	6%	-5%	.	1%	6%[46.1 µM]	.	27%
COc1ccc(OCC(=O)NNC(=O)C(=O)Nc2ccc(C)cc2)cc1	19%	?	-5%	-22%	0%	7%	-3.4%	16%
Cc1ccc2occ(C(c3nnnn3C3CCCC3)N3CCN(C(=O)c4ccco4)CC3)c(=O)c2c1 (stereo unspecified)	-13%	-6%	14%	?	2%	?	-4.0%	.

Three entries picked at random from those above:
canonical_smiles	LASV entry inh	NS1 function inh	RE007 growth inh	Cruzain noTriton	SARS PLpro yeast	Marburg entry inh	Cruzain Triton	2A StopGo
CC(=O)c1ccc(OCC(=O)N2CCCC(Nc3ccc(C)c(C)c3)C2)cc1 (stereo unspecified)	1%	13%	-18%	.	4%	?	.	-8%
COc1ccccc1N1CCN(S(=O)(=O)c2ccc(F)c(C(=O)Nc3ccc(C)c(F)c3)c2)CC1	?	.	.	?	.	.	1.4%	?
Cc1cc(OC(C)C(=O)NCc2ccncc2)c2c3c(c(=O)oc2c1)CCCC3 (stereo unspecified)	.	0%	-11%	.	7%	.	.	0%
